Assay outcomes from PubChem BioAssay.
STK33 inh: inhibitors of purified STK33 kinase, primary screen, biochemical, ADP-Glo luminescence, homogeneous, cell-free. MBP phosphorylation. inhibition, % at 10 µM. 320,000 tested, 0.073% active;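 active means inhibition at or above 25%, using the most active replicate where run in duplicate; inactive means inhibition below 25%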
Target sequence (Q9BYT3 whole entry, looked up): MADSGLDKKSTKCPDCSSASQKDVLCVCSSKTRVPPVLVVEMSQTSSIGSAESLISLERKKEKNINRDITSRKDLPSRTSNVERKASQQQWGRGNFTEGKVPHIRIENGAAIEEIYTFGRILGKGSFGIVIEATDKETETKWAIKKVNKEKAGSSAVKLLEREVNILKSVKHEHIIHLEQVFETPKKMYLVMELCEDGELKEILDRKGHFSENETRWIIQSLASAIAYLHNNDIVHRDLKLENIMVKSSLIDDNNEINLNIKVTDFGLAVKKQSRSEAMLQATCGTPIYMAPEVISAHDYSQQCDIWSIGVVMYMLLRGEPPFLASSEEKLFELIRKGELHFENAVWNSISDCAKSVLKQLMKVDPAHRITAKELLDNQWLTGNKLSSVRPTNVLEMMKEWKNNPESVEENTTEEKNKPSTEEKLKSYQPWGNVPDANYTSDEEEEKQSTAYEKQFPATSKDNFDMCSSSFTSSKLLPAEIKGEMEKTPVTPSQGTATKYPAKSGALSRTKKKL
* = called active by the depositor. The list is partial, and most or all hits are left out here.

SMILES	STK33 inh
COc1ccc(S(=O)(=O)N2CC(O)CC2C(=O)OCC(=O)Nc2ccc(Cl)cn2)cc1 (configuration not stated)	-0.4
c1ccc2c(c1)oc1c(NCCN3CCOCC3)ncnc12	0.7
CC1(C)CC(Cc2nc(=S)[nH][nH]2)C(=O)O1 (configuration not stated)	-2.9
CC(=O)c1ccccc1N(C(=O)c1ccco1)C(C(=O)NC1CCCC1)c1ccc(C)cc1 (configuration not stated)	-0.3
Cn1nc(N)c2c(-c3ccccc3)c(C#N)c(N)nc21	1.8
CCCCOc1ccc(Nc2nc(C)cc(C)c2C#N)cc1	-0.1
COc1ccc(C(=O)COC(=O)[C@H](C)Nc2ccc(C(F)(F)F)cc2[N+](=O)[O-])cc1	-0.5
Cc1cccc(-c2nsc(SCC(=O)N3CCCC3)n2)c1	2.3
Cc1cccc(N2C(=O)CSC2c2cccnc2)c1 (configuration not stated)	-1.5
CCC1C(C#N)=C(N)OC2=C1C(=O)CC(C)(C)C2 (configuration not stated)	-0.9
Cc1ccc(-n2nc3c(SCCN4CCOCC4)nnc(C)c3c2C)cc1	-0.7
O=S(=O)(Nc1ccccn1)c1cnc(Cl)c(Br)c1	-5.4
c1coc(-c2nnc3n2C2(CCCC2)Cc2ccccc2-3)c1	0.8
CCn1c(=O)c(C(=O)NNC(=O)c2ccccc2Cl)c(O)c2ccccc21	-0.5
Cc1ccc(SCC(=O)NCCN2C(=O)CSC2=O)cc1C	2.4
CCOn1c(=O)c(-c2ccc(C)cc2)[n+]([O-])c2ccccc21	1.8
O=C(Nc1cccc(F)c1)C1CCN(C(=O)c2ccc(Cl)cc2)CC1	-1.8
CNC(=O)c1nnn(Cc2ccccc2)c1NC(=O)C(F)(F)F	-1.6
CCOc1ccc(S(=O)(=O)N2CCc3cc(OC)c(OC)cc3C2)cc1	-0.7
O=C(NNC(=O)C1CCN(Cc2cccc(F)c2)CC1)c1cccc(Cl)c1	-1.1

Part of the list above, bar-delimited:
SMILES | STK33 inh
CCC1C(C#N)=C(N)OC2=C1C(=O)CC(C)(C)C2 (configuration not stated) | -0.9
Cc1ccc(-n2nc3c(SCCN4CCOCC4)nnc(C)c3c2C)cc1 | -0.7
O=S(=O)(Nc1ccccn1)c1cnc(Cl)c(Br)c1 | -5.4
c1coc(-c2nnc3n2C2(CCCC2)Cc2ccccc2-3)c1 | 0.8
CCn1c(=O)c(C(=O)NNC(=O)c2ccccc2Cl)c(O)c2ccccc21 | -0.5

Carrying on.
SMILES	STK33 inh
O=C(c1cccc(NS(=O)(=O)c2ccccc2)c1)N1CCN(c2ccccc2)CC1	0.2
CN(C)C(=O)c1ccc(-n2cnc3ccccc3c2=O)cc1	-0.8
CS(=O)(=O)N1CCCC(C(=O)N2CCN(c3cccc(Cl)c3)CC2)C1 (configuration not stated)	-0.2
O=C(NCc1ccccc1F)C12CC3CC(CC(C3)C1)C2	-0.6
Cc1ccc(C)c(NC(=O)C(Sc2cccc[n+]2[O-])c2ccccc2)c1 (configuration not stated)	-0.9
Cc1nnc(SCC(=O)N2CCCC(C(=O)c3ccc(Cl)cc3)C2)o1 (configuration not stated)	-0.4
CCOC(=O)C1CCCN(CC(=O)Nc2nccs2)C1 (configuration not stated)	0.3
CC(=O)c1cc2c(cc1N/C(=N/S(=O)(=O)c1ccc(C)cc1)c1ccc(Cl)cc1)OCO2	-0.6
COc1ccc(C(=O)CCc2ccc(OC)c(OC)c2)cc1	0.5
CCn1c(C(=O)NCCCc2ccccc2)cc2sccc21	8.9
COc1ccc(C2C(C#N)=C(N)Oc3n[nH]c(C)c32)cc1Cn1nnc2ccccc21 (configuration not stated)	0.9
COC(=O)CNC(=O)C1Nc2ccccc2C2C=CCC12 (configuration not stated)	0.7
CC1(C)CC(=O)N(c2ccc(C#N)cc2)C(=O)C1	0.2
Cc1cc(NC(=O)CSc2nc(C(C)C)nc3sc4c(c23)CCC(C)C4)no1 (configuration not stated)	-0.8
Cc1nnc(N2CCN(c3ccccc3)CC2)[nH]c1=O	0.7
COc1ccc(NC(=O)COc2cccc3c2CCN(Cc2cccnc2)C3=O)c(OC)c1	-0.9
O=C(C1CC1)N1CCc2cc(Br)cc(S(=O)(=O)NCc3ccccn3)c21	-0.3
CC(C)N(C(=O)COC(=O)c1ccc([N+](=O)[O-])cc1)c1ccccc1	-0.4
N#Cc1ccc(Oc2ccc(C(F)(F)F)cc2NC(=O)c2ccc(F)cc2)cc1	-1.6
Cc1ccc2c(c1)c1c(n2CC(O)CNC(CO)(CO)CO)CCCC1 (configuration not stated)	1.1
Cc1ccn2cc(CSc3ccccc3N)nc2c1	-0.5
COc1cc(C(=S)N2CCCC2)cc(OC)c1OC	1.9
FC(F)(F)C1=CC(c2ccc(Br)cc2)=NCCN1	-1.1
COc1ccc(S(=O)(=O)N(C)CC(=O)N2CCOCC2)cc1	-1.1
CN(C)c1ccc(C2(O)C(=O)c3ccccc3C2=O)cc1	-0.3
CCCCc1ccc(CC2S/C(=C(\C#N)C(=O)N3CCOCC3)N(c3ccccc3)C2=O)cc1 (configuration not stated)	-1.9
Cc1ccc2c(c1)N(CC(=O)NCCC1=CCCCC1)C(=O)c1cccnc1O2	1.7
O=C(C(=O)N1CCN(c2ccc(F)cc2)CC1)c1cn(CC(=O)N2CCOCC2)c2ccccc12	-3.4
CCOc1ccc2nc(NC(=O)c3ccoc3C)sc2c1	19.5
Cc1ccc(C(=O)Nc2ccc(S(=O)(=O)N3CCc4ccccc4C3)cc2)o1	-1.4
Cc1ccc(NC(=O)[C@H](Cc2ccccc2)NC(=O)C2CCNCC2)cc1	-0.8
CCN(CC(=O)Nc1cc(Cl)ccc1C)C(=O)CCS(=O)(=O)c1ccc(C)cc1	-1.0
O=C(NC1CC1)C1CCN(C2CCN(Cc3ccccc3C(F)(F)F)CC2)CC1	-0.8
CCN1C(=O)/C(=C2/C=CC=CN2C)OC1=S	0.1
COc1ccc(CC(=O)Nc2nc(-c3ccc(F)c(F)c3)cs2)cc1OC	-0.2
O=C(c1cn(-c2ccccc2)nc1-c1cccc(Br)c1)N1CCOCC1	-2.1
Cc1onc(-c2c(F)cccc2Cl)c1C(=O)NCCO	-0.8
O=C(CSc1nc2cc(Cl)ccc2s1)c1ccco1	0.0
FC(F)(F)c1cccc(CNC2c3ccccc3-c3ccccc32)c1	-0.3
CC(=O)C1C(c2ccc(Br)cc2)c2c(noc2C)CC1(C)O (configuration not stated)	1.8
COC(=O)C(CC(=O)c1ccc(Br)cc1)n1nc(C)cc1C (configuration not stated)	1.6
O=C1COc2ccc(C(=O)COC(=O)C3CC(O)CN3S(=O)(=O)c3ccc(Cl)cc3)cc2N1 (configuration not stated)	-0.7
O=C(COc1ccc(Br)cc1Br)NC1CCS(=O)(=O)C1 (configuration not stated)	-0.3
Cc1ccc(C)c(SCC(=O)N(C)CC(=O)Nc2ccc(N3CCOCC3)cc2)c1	-0.5
CN1CCN(C(=O)c2cccc(COc3cc(Cl)ccc3Cl)c2)CC1	0.3
Cc1cc(C)c2c(CC(=O)NCCc3ccccc3)coc2c1	-1.9
COCC(COS(N)(=O)=O)C(C)C (configuration not stated)	-0.6
O=C(O)c1ccc(/C=N/N2CCN(C3c4ccccc4-c4ccccc43)CC2)cc1	0.9
Cc1noc(C)c1COC(=O)c1cc2c(C)nn(-c3ccc(F)cc3)c2s1	-1.7
COC(=O)CC1=NN(c2ccc(OC)cc2)C(=O)/C1=C\c1ccc(Cl)cc1	-2.3
Cc1cc(C)nc(N2CCC(C(=O)NCc3ccccc3F)CC2)n1	17.3
CC(C)(C)c1ccc(OCC(=O)N/N=C/c2ccsc2)cc1	-1.2
COc1ccc(NC(=O)CSc2nncn2C)cc1OC	-0.3
Cc1ccc(S(=O)(=O)N2CCC(=O)N(C(COCc3cccc(C)c3)C(C)C)CC2)cc1 (configuration not stated)	-1.3
COc1ccccc1CNC(=O)COC(=O)c1ccccc1SCC(=O)N1CCCC1	-0.5
Cc1nn2c(-c3ccncc3)ccnc2c1Cl	-2.1
Cc1ccc(C(=O)CN2C(=O)NC3(CCc4ccccc43)C2=O)c(C)c1 (configuration not stated)	-1.7
Cc1ccc(OCc2cc(C(=O)N(C)CC3CCOCC3)no2)cc1C	-0.2
O=C(Oc1ccc2c(c1)CCC2)N1CCOCC1	-5.1
COCCC(=O)N1CCC(Oc2ccc(C(=O)N3CCCCC3CCO)cc2)CC1 (configuration not stated)	0.4
(list continues)
SMILES	STK33 inh
CCC(C)Sc1ccc([C@H]2N[C@@](Cc3ccccc3)(C(=O)OC)[C@H]3C(=O)N(C)C(=O)[C@@H]23)cc1 (some centres not stated)	1.0
COc1ccc(OC)c(Nc2nc(NCc3ccco3)nc(N)c2[N+](=O)[O-])c1	0.5
Cc1nn(CCCC(=O)NCc2ccc(F)cc2)c(C)c1[N+](=O)[O-]	-0.8
NC(=O)NC(=O)CSc1nc2cc([N+](=O)[O-])ccc2n1-c1cccc(C(F)(F)F)c1	-0.4
Cc1ccc(NC(=O)CSc2nnc(-c3cccnc3)s2)cc1	1.6
Cc1cc(C)c(C2=CSC3=NS(=O)(=O)CCN23)c(C)c1	0.8
Cc1ccc(-c2cc(Cc3ccc(F)cc3)c(=O)[nH]n2)cc1	-0.9
Cc1ccc(-c2nn(C)c(=O)c3ccccc23)cc1S(=O)(=O)NCCO	0.3
COCCCn1c(SCC(=O)Nc2ccccc2)nnc1-c1ccncc1	-1.0
O/N=C/c1cc2ccccc2n1Cc1ccccc1F	0.1
CCOC(=O)N1CCN(C(=O)c2cc(COc3ccc(F)cc3F)on2)CC1	-0.9
CCC(CC)c1nc2ccccc2c(=O)[nH]1	-1.1
O=C(CN1C2CCCC1CC(NC(=O)C1CCCCC1)C2)NCc1ccc(F)cc1 (configuration not stated)	-1.1
O=C1NC2(CCCCC2)N=C1c1ccc(F)cc1	0.3
CC(=O)Nc1ccc(S(=O)(=O)NNC(=S)NCc2ccco2)cc1	-0.8
COc1ccc(NC(=O)c2ccc3[nH]c(C)c(C)c3c2)c(OC)c1	-1.3
Cc1ccc(C(=O)NC(=S)Nc2ccc(S(=O)(=O)N(C)c3ccccc3)cc2)cc1	-0.6
CCOc1ccc(N(C(=O)c2cnccn2)C(C(=O)NC2CCCCC2)c2ccc(O)cc2)cc1 (configuration not stated)	-0.8
CCOC(CNC(=O)C1CCN(S(=O)(=O)c2ccc3nc4c(c(C(=O)O)c3c2)CC(C)CC4)CC1)OCC (configuration not stated)	-1.1
COc1ccccc1NC(=O)C1CCCN(S(=O)(=O)c2ccc(-n3cnnn3)cc2)C1 (configuration not stated)	-0.8
Cc1cc(S(=O)(=O)NC2CCCC2)ccc1-n1cnnn1	-0.2
O=C(Nc1ccc(S(=O)(=O)N2CCCC2)cc1)c1cccs1	-0.4
Cc1cc(C)nc(NC2=NCC(=O)N2c2ccc3c(c2)OCCO3)n1	0.2
O=C(CCCC(=O)n1cnc2ccccc21)n1cnc2ccccc21	-0.8
CCCC(=O)Nc1nnc(SCC)s1	-1.6
Cc1cccc(Cn2nc(C)cc2NC(=O)CCCn2ccc([N+](=O)[O-])n2)c1	0.5
CCOC(=O)C1=C(C)NC(=O)NC1c1cn(-c2ccccc2)nc1-c1cccs1 (configuration not stated)	-0.5
COc1cc2c(cc1NC(=O)c1cccc(Br)c1)CCCC2	0.1
CC(C)(C)NCC1(CO)SC(N)=NC1=O (configuration not stated)	0.2
O=C(CSc1ccccn1)Nc1ccc2ccccc2c1	2.6
O=C(NCC1CCCO1)c1onc(CSc2ccccc2F)c1C(=O)O (configuration not stated)	-0.9
CCCCCc1nc2c(c(=O)c3ccccc3n2C)c(=O)n1Cc1ccc(OC)cc1	-2.0
Cc1c(NC(=O)C(C)Sc2ccc3ccccc3n2)c(=O)n(-c2ccccc2)n1C (configuration not stated)	-0.1
CCOC(=O)c1sc(Nc2ccc(Br)cc2)nc1C	-0.6
Cc1cccc(OCCNc2nc3c(c(=O)n(C)c(=O)n3C)n2C)c1	-0.6
CCC(=O)N1CCN(c2ccc(NC(=O)COc3ccc(C)cc3C)cc2)CC1	-2.3
COC(=O)C1=C2SC(C)C(=O)N2C(N)=C(C#N)C1c1cc(OC)c(OC)c(OC)c1 (configuration not stated)	0.9
O=C(CNC(=O)Cc1ccccc1)NCC(=O)OCC(=O)c1ccc(F)cc1	-0.9
CC(=O)c1sc(NC(C)c2ccccc2)nc1C (configuration not stated)	0.2
COC(=O)C1C/C(=N\NS(=O)(=O)c2ccc(C)cc2)c2ccsc2C1 (configuration not stated)	-4.3

Molecules shown so far with a COOH group (3):
SMILES	STK33 inh
O=C(O)c1ccc(/C=N/N2CCN(C3c4ccccc4-c4ccccc43)CC2)cc1	0.9
CCOC(CNC(=O)C1CCN(S(=O)(=O)c2ccc3nc4c(c(C(=O)O)c3c2)CC(C)CC4)CC1)OCC (configuration not stated)	-1.1
O=C(NCC1CCCO1)c1onc(CSc2ccccc2F)c1C(=O)O (configuration not stated)	-0.9

In a second layout: entries from further up.
> O=C(NCC1CCCO1)c1onc(CSc2ccccc2F)c1C(=O)O (configuration not stated)
  STK33 inh: -0.9
> CCCCCc1nc2c(c(=O)c3ccccc3n2C)c(=O)n1Cc1ccc(OC)cc1
  STK33 inh: -2.0
> Cc1c(NC(=O)C(C)Sc2ccc3ccccc3n2)c(=O)n(-c2ccccc2)n1C (configuration not stated)
  STK33 inh: -0.1
> CCOC(=O)c1sc(Nc2ccc(Br)cc2)nc1C
  STK33 inh: -0.6

(more compounds)
SMILES	STK33 inh
COC(=O)C1CCN(C(=O)COc2cc3sc(C)nc3c3sccc23)CC1	-3.4
COc1ccc(/C=C2\SC(=S)N(CCCCCC(=O)Nc3cc(C)on3)C2=O)cc1OC	-0.6
COc1ccc(C(=O)Nc2ccc(S(=O)(=O)Nc3nccc(C)n3)cc2)cc1OC	-0.9
Cc1ccc(/C=C2\Oc3c(ccc(O)c3CN3CCN(CCO)CC3)C2=O)cc1	6.9
CC1CC(C)CN(C(=O)COc2ccc([N+](=O)[O-])cc2Cl)C1 (configuration not stated)	-1.1
CCC(=O)Nc1nnc(-c2ccc(OC)cc2)o1	-1.1
COc1ccc(C(=O)Oc2ccc(C(C)=O)cc2)c(OC)c1	1.3
NC(=O)C1CCN(c2c([N+](=O)[O-])cc(C(F)(F)F)cc2[N+](=O)[O-])CC1	-0.5
